From PubChem BioAssay
ID4 binder = binders of human ID4 protein, primary screen, biochemical, small molecule microarray, single point. AID 624137, 2012. hit rate 1.2% among 31,000. calls only. Flag-ID4 binding, fluorescence F/B;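 active means spot signal over background at p below 0.07 in all four prints; compounds were printed on slides so no solution concentration is given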;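 further: a binder raises fluorescence above local background on the spot; about 2 pmol printed per array spot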
Target sequence (P47928 whole entry, looked up): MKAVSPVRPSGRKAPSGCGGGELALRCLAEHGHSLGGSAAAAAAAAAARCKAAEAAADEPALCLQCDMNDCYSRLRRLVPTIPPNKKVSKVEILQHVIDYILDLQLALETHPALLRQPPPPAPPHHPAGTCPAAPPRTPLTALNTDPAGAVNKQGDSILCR
Calls only; i = inactive. An excerpt (hit frequency here may not be typical).

SMILES | ID4 binder
O=C(CN1C(=O)COc2ccc(Cl)cc21)Nc1ccc(N2CCOCC2)cc1 | i
O=C(C[C@H]1C=C[C@H](NC(=O)C2CCC2)[C@H](CO)O1)NC1CCCCC1 | i
CCn1c(SCC(=O)Nc2cccc(Br)c2)nnc1-c1ccc(C)cc1 | i
O=C(C[C@@H]1CC[C@@H](NC(=O)c2ccncc2)[C@@H](CO)O1)NCC1CC1 | i
Cc1ccccc1-c1cnc2c(c1)C(=O)N([C@@H](C)CO)C[C@H](C)[C@@H](CN(C)CC1CCOCC1)O2 | i
C[C@@H]1CN([C@@H](C)CO)C(=O)c2cc(C#Cc3ccc(F)cc3)cnc2O[C@@H]1CN(C)C | i
C[C@H](CO)N1C[C@H](C)[C@H](CN(C)CC2CCOCC2)Oc2ncc(-c3cccc(F)c3)cc2C1=O | i
O=C(CSc1nnc(-c2ccc(Br)cc2)o1)Nc1ccccc1Cl | i
CCc1ccccc1N(CC(=O)OC)S(C)(=O)=O | i
CCC(=O)N[C@H]1C=C[C@@H](CC(=O)NCc2ccccc2F)O[C@H]1CO | i
CNC[C@H]1Oc2cc(C3=CCCC3)ccc2S(=O)(=O)N([C@H](C)CO)C[C@@H]1C | i
O=C(CSc1n[nH]c(-c2ccccc2Cl)n1)c1ccc(O)c(O)c1 | i
[N-]=[N+]=Nc1ccccc1C[C@@]1(C(=O)N2CCOCC2)N=C(c2ccc(OCCCO)cc2)O[C@@H]1c1ccccc1 | i
O=C(C[C@H]1C=C[C@H](NC(=O)C2CC2)[C@H](CO)O1)NCc1ccncc1 | i
Cc1ccc(-n2c(SCC(=O)Nc3ccc(Cl)cc3C)nnc2-c2ccccc2)cc1 | i
CCCN(C)C[C@@H]1Oc2ncc(-c3cccc(C(=O)N(C)C)c3)cc2C(=O)N([C@H](C)CO)C[C@@H]1C | i
Cc1ccccc1Cn1nc(C)c(NC(=O)C2CC(c3cccc(Br)c3)=NO2)c1C (stereo not drawn) | i
O=C(CSc1n[nH]c(-c2ccc(Cl)cc2Cl)n1)Nc1cccc2ccccc12 | i
C=CCN1C(=O)[C@]2(O[C@H](CCO)[C@@H]([Si](C)(C)c3ccc(OC)cc3)[C@@H]2C)c2cc(N3CCCCC3=O)ccc21 | i
CCC(=O)Nc1ccc2c(c1)OC[C@@H](C)NC[C@@H](C)[C@H](OC)CN(C)C2=O | i
O=C(NCc1cccnc1)C1CC(c2ccc(Cl)c(Cl)c2)=NO1 (stereo not drawn) | i
C#CCN(C)Cc1ccccc1 | i
CC(C)(C)c1ccc(OCC(=O)N(c2ccccn2)C2CCCCC2)cc1 | i
COc1ccc(-n2c(C)c(C(C)=O)c3cc(OCC(N)=O)ccc32)cc1 | i
Cc1ccc(-c2nnc(SCC(=O)Nc3ccccc3F)n2C)cc1 | i

Next section
SMILES | ID4 binder
OC(CN1CCN(c2cccc(Cl)c2)CC1)C(c1ccccc1)c1ccccc1 (stereo not drawn) | i
CO[C@H](CN(C)S(=O)(=O)c1ccc(C)cc1)[C@@H](C)CN(Cc1ccccc1Cl)[C@H](C)CO | i
COc1cc(NC(=O)COc2ccc(Cl)cc2Cl)ccc1NC(=O)c1ccccc1Cl | i
CCOC(=O)c1c(NC(=O)Cn2cc([N+](=O)[O-])cn2)sc2c1CCC2 | i
COC(=O)Cc1c(C)nc2nc(COc3ccccc3)[nH]n2c1=O | i
C[C@@H]1CN([C@@H](C)CO)C(=O)c2cc(C#CC3CCCCC3)cnc2O[C@H]1CN(C)C | i
C[C@@H](NC(=O)C[C@H]1C=C[C@@H](NC(=O)Cc2ccccn2)[C@@H](CO)O1)c1ccccc1 | i
COc1ccccc1C(=O)Nc1ccc2c(c1)C(=O)N(C)C[C@@H](OC)[C@H](C)CN(C)[C@H](C)CO2 | i
CCCC#Cc1ccc2c(c1)O[C@H](CN(C)C)[C@@H](C)CN([C@@H](C)CO)S2(=O)=O | i
Cc1ccc(Cl)cc1NC(=O)CSc1nc2c(c(C(F)(F)F)c1C#N)CCCC2 | i
CC(C)NC(=O)N(C)C[C@@H]1Oc2ncc(C#CC3CC3)cc2C(=O)N([C@H](C)CO)C[C@H]1C | i
C[C@H](CO)N1C[C@H](C)[C@H](CN(C)Cc2cccnc2)Oc2ncc(/C=C/c3ccccc3)cc2C1=O | i
C[C@@H]1CN([C@H](C)CO)C(=O)c2cc(Br)cnc2O[C@H]1CN(C)C(=O)c1ccc(F)cc1 | i
CCCN(C)C[C@H]1Oc2cc(Br)ccc2S(=O)(=O)N([C@@H](C)CO)C[C@H]1C | i
O=C(NCCc1c[nH]c2ccccc12)NC12CC3CC(CC(C3)C1)C2 | i
C[C@H](CO)N1C[C@H](C)[C@H](CN(C)C)Oc2cc(C#Cc3ccccc3)ccc2S1(=O)=O | i
Cc1noc(C)c1S(=O)(=O)N(C)C[C@@H]1OCc2ccccc2-c2c(n(C)c3ccccc23)C(=O)N([C@H](C)CO)C[C@@H]1C | i
C[C@@H]1CN([C@H](C)CO)C(=O)c2cc(C#CC3(O)CCCC3)cnc2O[C@@H]1CN(C)S(=O)(=O)c1ccccc1 | i
C[C@H](CO)N1C[C@H](C)[C@@H](CN(C)C)Oc2cc(C#Cc3cccc(F)c3)ccc2S1(=O)=O | i
COc1ccc(N(C(C)C(=O)N2CCOCC2)S(C)(=O)=O)cc1 (stereo not drawn) | i
COc1cccc(NC(=O)CSc2nnc(-c3ccccc3F)n2-c2ccccc2)c1 | i
O=[N+]([O-])c1nn(-c2ccccc2)n(O)c1=NC1CCN(Cc2ccccc2)CC1 | i
COc1ccc(NC(=O)CSc2nnc(C)s2)c([N+](=O)[O-])c1 | i
COC(=O)c1ccccc1NC(=O)CSc1nnnn1-c1cccc2ccccc12 | i
CCCC#Cc1cnc2c(c1)C(=O)N([C@@H](C)CO)C[C@H](C)[C@@H](CN(C)Cc1ccncc1)O2 | i

Retrieved by structure from above (5):
SMILES | ID4 binder
C[C@@H](NC(=O)C[C@H]1C=C[C@@H](NC(=O)Cc2ccccn2)[C@@H](CO)O1)c1ccccc1 | i
COc1ccc(NC(=O)CSc2nnc(C)s2)c([N+](=O)[O-])c1 | i
OC(CN1CCN(c2cccc(Cl)c2)CC1)C(c1ccccc1)c1ccccc1 (stereo not drawn) | i
CCCN(C)C[C@H]1Oc2cc(Br)ccc2S(=O)(=O)N([C@@H](C)CO)C[C@H]1C | i
C[C@H](CO)N1C[C@H](C)[C@@H](CN(C)C)Oc2cc(C#Cc3cccc(F)c3)ccc2S1(=O)=O | i

The main list resumes, repeating the 6 entries before the break.
SMILES | ID4 binder
COc1ccc(N(C(C)C(=O)N2CCOCC2)S(C)(=O)=O)cc1 (stereo not drawn) | i
COc1cccc(NC(=O)CSc2nnc(-c3ccccc3F)n2-c2ccccc2)c1 | i
O=[N+]([O-])c1nn(-c2ccccc2)n(O)c1=NC1CCN(Cc2ccccc2)CC1 | i
COc1ccc(NC(=O)CSc2nnc(C)s2)c([N+](=O)[O-])c1 | i
COC(=O)c1ccccc1NC(=O)CSc1nnnn1-c1cccc2ccccc12 | i
CCCC#Cc1cnc2c(c1)C(=O)N([C@@H](C)CO)C[C@H](C)[C@@H](CN(C)Cc1ccncc1)O2 | i
Cc1cc(C)nc(/N=C2\NC(=O)CC(C(=O)O)N2c2cccc(C(F)(F)F)c2)n1 (stereo not drawn) | i
CCOC(=O)C1CCCCN1Cc1cccc(OC)c1OC (stereo not drawn) | i
C[C@H](CO)N1C[C@H](C)[C@H](CN(C)Cc2cncnc2)Oc2cc(C#CC3CCCC3)ccc2S1(=O)=O | i
Cc1cc(C#N)c2c(C)ccc(C(C)C)cc1-2 | i
Cc1cc(NS(=O)(=O)c2ccc(NS(=O)(=O)c3cccs3)cc2)nc(C)n1 | i
COc1cc(S(=O)(=O)NCc2ccccn2)c(OC)cc1Cl | i
C[C@H]1CN([C@@H](C)CO)S(=O)(=O)c2ccc(Br)cc2O[C@@H]1CN(C)C | i
O=C(NCc1ccco1)c1ccccc1NC(=O)C1CC(=O)N(c2ccc(Cl)cc2)C1 (stereo not drawn) | i
COc1cccc(-c2cnc3c(c2)C(=O)N([C@@H](C)CO)C[C@H](C)[C@@H](CN(C)Cc2cccnc2)O3)c1 | i
COc1ccc(C(=O)NCCn2cc(SCC(=O)N3CCCCC3)c3ccccc32)cc1 | i
O=C(Cc1ccccc1[N+](=O)[O-])Nc1ccccc1C(=O)N1CCOCC1 | i
COC(=O)CSc1nnc(C2COc3ccccc3O2)n1-c1ccccc1 (stereo not drawn) | i
C[C@@H]1CN([C@H](C)CO)S(=O)(=O)c2ccc(C3=CCCCC3)cc2O[C@@H]1CN(C)Cc1ccccc1 | i
COc1ccc(CN(C)C[C@H]2Oc3ccc(N(C)C)cc3CC(=O)N([C@H](C)CO)C[C@H]2C)cc1 | i
COc1ccc([N+](=O)[O-])cc1N(CC(=O)N1CCCCC1)S(C)(=O)=O | i
C[C@@H]1CN([C@@H](C)CO)C(=O)c2cc(Br)cnc2O[C@@H]1CN(C)CC1CCOCC1 | i
Cc1ccc(-c2nnc(SCC(=O)Nc3ccc(Br)c(C)c3C)o2)cc1 | i
C[C@@H]1CN([C@H](C)CO)C(=O)c2cc(-c3ccc(F)cc3)cnc2O[C@@H]1CN(C)C(=O)C1CCC1 | i
Cc1cc(N(CC(=O)Nc2ccc(Cl)c(Cl)c2)S(C)(=O)=O)ccc1Br | i
Cc1ccc(-c2nc(Nc3ccccc3F)sc2C)cc1 | i
CC(C)(C)c1cn2c3ccccc3nc2n1CCCN1CCCCC1 | i
Cc1cccc(OCC(=O)Nc2cccc(C(=O)Nc3ccccc3C(=O)O)c2)c1 | i
COc1ccccc1S(=O)(=O)N(C)C[C@H]1OCc2ccccc2-c2ccccc2C(=O)N([C@H](C)CO)C[C@@H]1C | i
COc1ccc(N(CC(=O)Nc2cccc([N+](=O)[O-])c2C)S(C)(=O)=O)cc1Cl | i
COc1ccccc1NC(=O)CSc1nnnn1-c1cc(C)cc(C)c1 | i

Reformatted: entries from further up.
Compound	ID4 binder
C[C@H]1CN([C@@H](C)CO)S(=O)(=O)c2ccc(Br)cc2O[C@@H]1CN(C)C	i
Cc1ccc(-c2nc(Nc3ccccc3F)sc2C)cc1	i

The list goes on:
SMILES | ID4 binder
C[C@@H]1CN([C@@H](C)CO)C(=O)c2cc(-c3ccccc3F)cnc2O[C@H]1CN(C)C | i
Cc1ccc(NC(=O)C2CC(=O)n3c(nc4ccccc43)N2)cc1Cl (stereo not drawn) | i
Cc1ccc(N(C(=O)COc2ccc(C)cc2C)C2C=CS(=O)(=O)C2)cc1 (stereo not drawn) | i
COc1ccccc1-c1ccc([C@H]2[C@@H](CO)N(C(=O)C3CCOCC3)[C@H]2C#N)cc1 | i
Cc1cc(NC(=O)CSc2nnnn2-c2ccccc2)ccc1Cl | i
COC1=CC(=O)O[C@@H](/C=C/c2ccccc2)[C@@H]1O | i
Cc1ccc(-c2cnc3c(c2)C(=O)N([C@@H](C)CO)C[C@H](C)[C@H](CN(C)CC2CCOCC2)O3)cc1 | i
COc1cc(NC(=S)NCc2ccco2)c(OC)cc1Cl | i
C/C=C/c1cnc2c(c1)C(=O)N([C@@H](C)CO)C[C@@H](C)[C@H](CN(C)C(=O)C1CCCCC1)O2 | i
CC(C)C#Cc1cnc2c(c1)C(=O)N([C@H](C)CO)C[C@H](C)[C@@H](CN(C)C(=O)c1ccccc1)O2 | i
COc1ccc(-c2cnc3c(c2)C(=O)N([C@@H](C)CO)C[C@@H](C)[C@@H](CN(C)C(=O)NC2CCCC2)O3)cc1 | i
C[C@@H]1CN([C@@H](C)CO)S(=O)(=O)c2ccc(-c3ccc(F)cc3)cc2O[C@H]1CN(C)CC1CC1 | i
COc1ccc(-n2nnnc2SCC(=O)Nc2ccc(F)cc2F)cc1 | i
CCC(=O)N(C)C[C@H]1Oc2ncc(/C=C/c3ccccc3)cc2C(=O)N([C@@H](C)CO)C[C@@H]1C | i
O=C(O[C@H]1[C@H](Oc2ccccc2COC(=O)C2(O)C=CCCC2=O)O[C@H](CO)[C@@H](O)[C@@H]1O)c1ccccc1 (stereo partly drawn) | i
C[C@@H]1CN([C@@H](C)CO)C(=O)c2cc(C3=CCCCC3)cnc2O[C@H]1CN(C)Cc1ccccc1 | i
O=C(NC1CCCC1)c1c(NC(=O)c2cc(-c3ccccn3)nc3ccccc23)sc2c1CCC2 | i
O=C(Nc1ccc2c(c1)[C@H]1C[C@H](CC(=O)N3CCCCC3)O[C@@H](CO)[C@H]1O2)C1CCC1 | i
COC(=O)Nc1sc2c(c1C(=O)NCc1ccco1)CCC2 | i
CN1N=C2c3ccccc3CCCC2C1c1cccs1 (stereo not drawn) | i
Cc1cc(C(=O)NNCc2ccccc2)no1 | i
COc1ccccc1NC(=O)CSc1nc(O)cc(=O)n1-c1ccccc1 | i
O=C(C[C@@H]1C=C[C@H](NC(=O)CN2CCOCC2)[C@H](CO)O1)NC1CCCCC1 | i
CC(O)c1nc2ccccc2n1CCCOc1ccc(Cl)cc1 (stereo not drawn) | i
COC(=O)c1ccc(NC(=O)C(C)N(c2ccc(C)c(C)c2)S(C)(=O)=O)cc1 (stereo not drawn) | i

More records.
SMILES | ID4 binder
COC(=O)c1cc(OC)c(OC)cc1NC(=O)COc1cc(Cl)c(Cl)cc1Cl | i
CC(=O)c1ccc(NC(=O)COc2ccccc2C(=O)Nc2ccccc2)cc1 | i
COC(=O)c1ccc(C(=O)OC)c(NC(=O)COc2ccc(I)cc2)c1 | i
CCn1c(SCC(=O)Nc2cccc(F)c2)nnc1-c1ccc(OC)cc1 | i
C[C@@H]1CN([C@@H](C)CO)C(=O)c2cc(-c3cccc(F)c3)cnc2O[C@H]1CN(C)C(=O)C1CCOCC1 | i
CCOc1ccc2nc(SCC(=O)Nc3ccc4c(c3)OCCO4)[nH]c2c1 | i
CCOc1ccc(-c2nc3ccc(Br)cc3c(C(=O)O)c2C)cc1 | i
COc1ccc(N(C(C)C(=O)Nc2ccc(C(F)(F)F)cc2)S(C)(=O)=O)cc1 (stereo not drawn) | i
CO[C@@H]1CN(C)C(=O)c2ccc(NC(=O)C3CC3)cc2OC[C@@H](C)N(Cc2cccnc2)C[C@H]1C | i
CCCC(=O)Nc1ncnc2c1ncn2[C@@H]1O[C@@H]2COP(=O)(O)O[C@H]2[C@H]1OC(=O)CCC | i
CC(C)CC#Cc1cnc2c(c1)C(=O)N([C@H](C)CO)C[C@@H](C)[C@H](CN(C)C(=O)c1ccccc1F)O2 | i
